CBX7 inh = blocks human CBX7 binding to H3K27me3 peptide. O95931. AID 1224903. AlphaScreen His6-CBX7 / biotin-H3K27me3 peptide binding; hits give low values. normalised signal (fraction of DMSO) (concentration not given with the values). actives 1.1% (n = 66,000); in the data active = normalised signal below about 0.5;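 note: 100 nL library stock added to about 20 µL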
Target sequence (O95931 whole entry, looked up): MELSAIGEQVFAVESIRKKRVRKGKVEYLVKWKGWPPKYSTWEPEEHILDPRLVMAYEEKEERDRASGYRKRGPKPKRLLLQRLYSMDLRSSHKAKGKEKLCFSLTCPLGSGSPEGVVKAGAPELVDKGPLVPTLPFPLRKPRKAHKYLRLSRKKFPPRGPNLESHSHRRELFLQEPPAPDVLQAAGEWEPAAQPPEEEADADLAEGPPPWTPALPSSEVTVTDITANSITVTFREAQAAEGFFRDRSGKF
CBX7 inh z-score = recorded beside CBX7 inh, whose call it bears; z-score; measured here: z-score of CBX7 signal; some inactives read as strong as hits; reference of the scale not given here;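 same signal on another scale; lower means less binding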
The depositor's hits bear a star. An excerpt (hit frequency here may not be typical).

entry | SMILES | CBX7 inh | CBX7 inh z-score
1 | Cc1cc(C)cc(OCC(=O)Nc2ccc(S(=O)(=O)Nc3ncccn3)cc2)c1 | 1.06 | 2
2 | CCN(C(=O)CN(C)S(=O)(=O)c1ccc2c(c1)n(C)c(=O)c(=O)n2C)c1ccccc1 | 1.22 | 2.09
3 | C=CCn1c(=O)c(C(=O)Nc2nc3ccccc3s2)c(O)c2ccccc21 | 1.13 | 1.87
4 | CCOc1ccc2nc(N3CCCC(C(=O)N4CCN(c5ccccn5)CC4)C3)sc2c1 (stereo not drawn) | 0.791 | -5.87
5 | Cc1ccc(NC(=O)CN2C(=O)c3ccccc3Sc3ccc(C(=O)N4CCCC4)cc32)cc1 | 0.977 | -0.634
6 | CCOc1ccc(-c2nc(CSCC(=O)NC(C)c3ccccc3)c(C)o2)cc1 (stereo not drawn) | 0.944 | -0.774
7 | CCCC1=Nc2cc(C(=O)NCCCN3CCN(C)CC3)ccc2Sc2ccccc21 | 0.924 | -1.1
8 | Cc1ccccc1NC(=O)NCCCN1CCCC1 | 1.18 | 3.64
9 | O=C(NC1CCCCCCC1)C1c2ccccc2C(=O)N1Cc1ccc(F)cc1Cl (stereo not drawn) | 0.914 | -1.71
10 | Cc1c(C(=O)Nc2ccccc2F)sc2ncnc(N3CCN(c4ccccc4F)CC3)c12 | 0.995 | -0.0671
11 | O=C1CSc2ccc(C(=O)NCCc3ccc(Cl)cc3)cc2N1 | 1.08 | 0.519
12 | CCN(CC)S(=O)(=O)c1ccc2c(c1)N(CC(=O)Nc1ccc(C)cc1C)C(=O)CS2 | 1.02 | 0.84
13 | Cc1cc(=O)n2nc(N3CCC(C(=O)Nc4ccccc4C)CC3)sc2n1 | 1.01 | 0.652
14 | CCOc1ccc(-n2c(Cc3cc(=O)[nH]c(=O)[nH]3)nnc2SCc2cccc(F)c2)cc1 | 1 | 0.128
15 | CCOC(=O)c1ccc(NS(=O)(=O)c2ccc3c(c2)CCN3C(=O)CC)cc1 | 1.26 | 2.18
16 | CCN(CCCNC(=O)CCn1nc(-c2ccc(C)cc2)ccc1=O)c1ccccc1 | 0.816 | -4.69
17 | Cc1cccc(OCCn2c(=N)n(CCO)c3ccccc32)c1 | 0.929 | -0.461
18 | Cc1ccc(S(=O)(=O)c2cn(CC(=O)Nc3ccc(Cl)cc3)c3ccc(C)cc3c2=O)cc1 | 0.809 | -2.74
19 | CCn1c(SCC(=O)Nc2ccc(C(F)(F)F)cc2)nnc1-c1c[nH]c2ccccc12 | 1.12 | 0.803
20 | Cc1ccccc1-c1nc(CS(=O)(=O)CC(=O)N2CCN(c3ccccc3)CC2)c(C)o1 | 0.781 | -5.7
21 | COc1ccccc1NC(=O)Cn1cnc2sc(C(=O)N3CCCc4ccccc43)c(C)c2c1=O | 0.887 | -1.21
22 | CCN(CC)CCCNC(=O)C1CCN(Cc2cnn(-c3ccccc3)c2-n2cccc2)CC1 | 1.03 | 1.58
23 | CCc1cccc2c(CCNS(=O)(=O)c3cc(Cl)ccc3Cl)c(C)[nH]c12 | 0.927 | -1.6
24 | Cc1ccc(CN2C(=O)c3ccccc3Sc3ccc(C(=O)NCc4cccnc4)cc32)cc1 | 0.668 | -3.3
25 | CCc1ccccc1Nc1cc(C(=O)NCCCOC(C)C)c2ccccc2n1 | 0.822 | -2.73
26 | Cc1nc(NC(=O)Nc2ccc(Cl)cc2)sc1C | 1.03 | 0.54
27 | CCN(CC)S(=O)(=O)c1ccc2c(c1)N(CC(=O)N1CCCCCC1)C(=O)CS2 | 1.03 | 0.914
28 | CCOc1ccc(NC(=O)CSc2nc3ccccc3o2)cc1 | 0.983 | -0.209
29 | O=C(Cn1cnc2scc(-c3ccccc3)c2c1=O)Nc1ccc(Oc2ccccc2)cc1 | 0.863 | -3.68
30 | Fc1ccc(Oc2nnnn2-c2ccccc2)cc1 | 1.1 | 1.64
31 | CC1CCC(NC(=O)C2CCCN(C(=O)c3cnn(-c4ccccc4)c3-n3cccc3)C2)CC1 (stereo not drawn) | 0.973 | -1.36
32 | CCCCOc1ccc(-c2nc3ncccn3c2NC2CCCCC2)cc1 | 0.94 | -0.944
33 | CCOC(=O)N1CCC(N2Cc3cccc(C(=O)NC(C)CCc4ccccc4)c3C2=O)CC1 (stereo not drawn) | 0.934 | -1.03
34 | CCc1cccc2c(CCNC(=O)c3ccccc3OC)c(C)[nH]c12 | 0.945 | -0.793
35 | CCCCCCOc1ccc(N2C(=O)CC(N3CCN(c4ccc(Cl)cc4)CC3)C2=O)cc1 (stereo not drawn) | 1.21 | 1.54
36 | COc1ccc(C(=O)Nc2nnc(CCS(=O)(=O)c3ccc(Cl)cc3)s2)cc1OC | 1.09 | 0.988
37 | Cc1cc(C)c(NC(=O)CSc2nnc(CNC(=O)c3ccccc3F)o2)c(C)c1 | 0.904 | -1.57
38 | Cc1nnc(Nc2cccc(C(F)(F)F)c2)[nH]c1=O | 1.45 | 0.913
39 | COc1ccc(OC)c(CCNC(=O)c2csc3c2CCCCC3)c1 | 0.984 | -0.538
40 | COc1ccccc1NC(=O)[C@H](CCSC)N1Cc2ccccc2C1=O | 1.01 | 0.148
41 | CCN1CCN(c2cc(C)c3cc(NC(=O)Cc4ccc(C)cc4)ccc3n2)CC1 | 1.73 | 7.4
42 | O=C(NCC1CCCO1)c1ccc2c(c1)N(Cc1ccc(F)cc1Cl)C(=O)CS2 (stereo not drawn) | 0.939 | -0.0722
43 | CCCCN(C)C(=O)C1CCN(c2cc(C)nc3c(-c4ccc(Cl)cc4)c(C)nn23)CC1 | 1.06 | 0.148
44 | CCc1nc2c(cnn2-c2ccc(C)c(C)c2)c(=O)n1-c1cccc(C)c1 | 0.743 | -3.3
45 | O=C(Nc1ccc(F)c(F)c1)C(Cc1ccccc1)NS(=O)(=O)c1cccs1 (stereo not drawn) | 1.07 | 0.964

(further entries)
Values run as follows: CBX7 inh | CBX7 inh z-score
46. COCCCNC(=O)CSCc1nc(-c2ccccc2C)oc1C
  0.948 | -0.217
47. Cc1ccc(-n2nc3c(c2NC(=O)COc2ccc4ccccc4c2)CSC3)cc1
  1.06 | 1.08
48. CCOC(=O)c1c(NC(=O)COc2ccccc2C(C)(C)C)sc2c1CCCC2
  0.966 | -0.0773
49. O=c1[nH]c2ccc(S(=O)(=O)NCc3ccc(F)cc3)cc2[nH]c1=O
  0.994 | -0.284
50. CCOC(=O)C1CCN(S(=O)(=O)c2ccc3c(c2)CCC(=O)N3)CC1
  1.03 | 0.432
51. O=C(Nc1ccc(F)c(Cl)c1)c1cc(-c2ccc(O)cc2)on1
  1 | -0.0167
52. Nc1ccc(-c2nc3ccc(-c4nc5ccccc5o4)cc3[nH]2)cc1
  1.12 | 4.11
53. CCC(=O)Nc1c(-c2ccccc2)nc2cc(C)ccn12
  0.891 | -1.38
54. COc1ccccc1-c1cc(C(=O)Nc2c(F)cc(F)cc2Br)no1
  1.01 | 0.296
55. COC(=O)c1ccc(C(=O)NCCc2c(C)[nH]c3ccc(OC)cc23)cc1
  0.945 | -1.3
56. COc1ccc(S(=O)(=O)NCCc2c(C)[nH]c3ccc(C)cc23)cc1
  0.454* | -0.543*
57. Cc1ccc2c(c1)C(c1ccccc1)N(C(=O)c1ccccc1F)CC(=O)N2 (stereo not drawn)
  0.829 | -0.232
58. COc1ccc(NS(=O)(=O)c2ccc(NC(=O)c3ccccc3)cc2)nn1
  1.01 | 0.0656
59. Cc1cccc(-n2cc3c(c2-c2ccccc2)c(=O)n(C)c(=O)n3C)c1
  1.06 | 0.7
60. CSc1cccc(Nc2cc(C(=O)NCCN3CCOCC3)c3ccccc3n2)c1
  1.4 | 11.2
61. Fc1ccccc1-c1nc(NCc2ccccc2Cl)c2ccccc2n1
  0.999 | -0.0275
62. CCOC(=O)c1ccc(NC(=O)Cn2ncc3c2-c2cc(C)ccc2OC3)cc1
  0.975 | -0.464
63. CCCCCn1c(CCNC(=O)c2ccccc2)nc2ccccc21
  0.962 | -0.552
64. COc1ccc(CNC(=O)Cn2nc(Cc3ccncc3)c3ccccc3c2=O)cc1
  1 | -0.00282
65. CC(NC(=O)C1CCCN(S(C)(=O)=O)C1)c1ccccc1 (stereo not drawn)
  1.05 | 1.31
66. COCCNC(=O)c1cc(Nc2ccc(OC)cc2OC)nc2ccccc12
  0.979 | -0.314
67. O=C(CCC1=NS(=O)(=O)c2ccccc2N1)Nc1ccccc1
  1.01 | 0.129
68. Cn1cc(CCC(=O)NCc2ccc(F)cc2Cl)c2ccccc21
  0.796 | -2.19
69. Cc1cc(NC(=O)c2cc(-c3ccc(C)c(C)c3)nc3ccccc23)no1
  0.952 | -1.42
70. CC(C)CCNC(=O)C1CCN(C(=O)c2cc3sccc3n2Cc2ccc(F)cc2)CC1
  0.997 | -0.135
71. Cc1nc(N(C)Cc2ccccc2)c2c(C)c(C)sc2n1
  1.07 | 0.66
72. CCCN1CCN(CCCNC(=O)c2cc3c(-c4cccc(OC)c4)nn(C)c3s2)CC1
  1 | 0.137
73. Cc1cccc(C)c1Nc1c(-c2cccs2)nc2ccccn12
  1.14 | 0.188
74. CCCCNC(=O)c1cc(Nc2ccc(CC)cc2)nc2ccccc12
  0.991 | -0.251
75. O=C(CSc1nnc(CNC(=O)c2ccccc2F)o1)Nc1ccccc1
  0.987 | -0.39
76. COc1cccc(NC(=O)c2nn(-c3ccc(OC)cc3OC)c(=O)c3ccccc23)c1
  1.03 | 0.546
77. COc1cccc(OCCn2c(-c3ccc(Br)cc3)nc3ccccc3c2=O)c1
  1.2 | 1.91
78. Cc1ccc(-c2nc3cc(Br)c(C)c(C)c3nc2-c2ccc(C)cc2)cc1
  1.43 | 2.8
79. COc1ccccc1NC(=O)CSc1nnc(CNC(=O)c2c(F)cccc2Cl)o1
  1.03 | 1.54
80. C=CCN1C(=O)N(c2ccccc2)C(=O)C1CC(=O)Nc1ccc(F)cc1 (stereo not drawn)
  0.871 | -0.559
81. O=C(Nc1ccc2nc3n(c(=O)c2c1)CCCCC3)c1cc(-c2cccs2)nc2ccccc12
  1 | 0.125
82. O=C(NCC1CCCO1)C1CC(=O)N(c2ccc(F)c(Cl)c2)C1 (stereo not drawn)
  0.99 | -0.451
83. Cc1ccc(NC2(c3nnnn3CCOC(=O)Nc3ccc(Cl)cc3)CCCCC2)cc1
  0.997 | -0.0966
84. O=c1[nH]c2ccccc2nc1Cc1ccccc1F
  0.995 | -0.143
85. CCCCOc1ccc(S(=O)(=O)Nc2ccc(-c3cn4ccccc4n3)cc2)cc1
  0.817 | -5.14

Entries of single compounds, quoted from the list. Screens in order: CBX7 inh | CBX7 inh z-score
CCCCOc1ccc(S(=O)(=O)Nc2ccc(-c3cn4ccccc4n3)cc2)cc1 as listed: 0.817 | -5.14
O=C(Nc1ccc2nc3n(c(=O)c2c1)CCCCC3)c1cc(-c2cccs2)nc2ccccc12 as listed: 1 | 0.125
COc1ccccc1NC(=O)CSc1nnc(CNC(=O)c2c(F)cccc2Cl)o1 as listed: 1.03 | 1.54
COc1cccc(NC(=O)c2nn(-c3ccc(OC)cc3OC)c(=O)c3ccccc23)c1 as listed: 1.03 | 0.546

(next part)
Values run as follows: CBX7 inh | CBX7 inh z-score
86. CCOc1cc2c(cc1OCC)C1C(C(=O)Nc3ccccc3F)c3ccccc3C(=O)N1CC2 (stereo not drawn)
  1.01 | 0.0586
87. CCOC(=O)c1cnc2cc(C(F)(F)F)ccc2c1Nc1ccc(C)cc1Br
  1.07 | 1.2
88. CCOc1ccccc1NC(=O)CCc1c(C)nc2c(c(C)nn2-c2ccc(C)cc2)c1C
  0.81 | -1.44
89. Cc1cccc2c1-c1sc(C(=O)n3c(C)cc4ccccc43)cc1CO2
  0.987 | -0.361
90. Cc1ccc(-c2nn(C)c(=O)c3ccccc23)cc1S(=O)(=O)NCCO
  1 | 0.000819
91. Cc1noc(C)c1S(=O)(=O)Nc1ccc(C(=O)NCc2ccccc2)cc1
  1.01 | 0.405
92. CC(=O)N1CCc2cc(S(=O)(=O)NCCC(=O)NCCc3ccc(S(N)(=O)=O)cc3)ccc21
  0.989 | -0.145
93. CCCNC(=O)Cn1cnc2sc(C(=O)Nc3cc(OC)ccc3OC)c(C)c2c1=O
  1.04 | 1.33
94. CN(C)CCNc1nc(-c2ccccc2)c2c(c1C#N)CC(C)(C)OC2
  0.973 | -0.316
95. CCOc1ccc(NS(=O)(=O)c2ccc3[nH]cc(C(=O)NC4CCCC4)c(=O)c3c2)cc1
  0.961 | -0.17

Single values from the list:
compound 89 in CBX7 inh has 0.987
compound 93 in CBX7 inh has 1.04
compound 94 in CBX7 inh z-score has -0.316
compound 92 in CBX7 inh z-score has -0.145

By substructure: the compounds so far with bromine
Values run as follows: CBX7 inh | CBX7 inh z-score
54. COc1ccccc1-c1cc(C(=O)Nc2c(F)cc(F)cc2Br)no1
  1.01 | 0.296
77. COc1cccc(OCCn2c(-c3ccc(Br)cc3)nc3ccccc3c2=O)c1
  1.2 | 1.91
78. Cc1ccc(-c2nc3cc(Br)c(C)c(C)c3nc2-c2ccc(C)cc2)cc1
  1.43 | 2.8
87. CCOC(=O)c1cnc2cc(C(F)(F)F)ccc2c1Nc1ccc(C)cc1Br
  1.07 | 1.2

The list continues:
Values run as follows: CBX7 inh | CBX7 inh z-score
96. COc1cccc(NC(=O)CC2Nc3ccccc3NC2=O)c1 (stereo not drawn)
  0.974 | -0.644
97. O=C(CSc1nnc(CNC(=O)c2cccs2)o1)Nc1cccc2ccccc12
  1.04 | 1.21
98. CCOc1cc(/C=c2\sc3nc4c(C)c(C)ccc4n3c2=O)ccc1O
  1.01 | 0.27
99. C=CCN1N=C(NC(=O)c2ccc(Br)cc2)SC(C)=C1c1ccc(Cl)cc1
  0.924 | -1.76
100. CCOC(=O)c1cc(-c2ccccc2)n(CCC(=O)N2CCN(c3cccc(Cl)c3)CC2)c1C
  0.874 | -3.35
101. Cc1ccc(C(C(=O)NC2CCCCC2)N2CCCC2)cc1 (stereo not drawn)
  1.03 | 1.47
102. O=C(Cc1ccccc1)Nc1ccc2oc(-c3ccncc3)nc2c1
  0.813 | -2.4
103. COc1ccc(C(=O)Nc2cccc(-c3nc4ccccc4o3)c2)cc1
  1.2 | 1.88
104. Cc1cccc2sc(NC(=O)c3ccc(CNc4c(N5CCCCC5)c(=O)c4=O)cc3)nc12
  0.939 | -0.141
105. COc1ccc(-c2noc(CCC(=O)NCCCN3CCN(c4ccccc4F)CC3)n2)cc1
  0.886 | -0.114
106. O=C(Nc1ccc(Cl)cc1)N1CCC(c2ccccc2)C1 (stereo not drawn)
  0.853 | -2.76
